Screens as filed in PubChem BioAssay.
FGF22 binding: FGF22 (human) thermal shift binding | AID 651658 | recombinant FGF22 thermal shift, SYPRO orange fluorescence; percent of sucrose octasulfate shift, DMSO zero | Q9HCT0 | 340,000 compounds, 1.5% hits | calls only at 9.99 µM;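 active = melting point raised past a set limit in the mean and every replicate; inconclusive = no clear call; three in four hits are not shown here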
Target sequence (Q9HCT0 whole entry, looked up): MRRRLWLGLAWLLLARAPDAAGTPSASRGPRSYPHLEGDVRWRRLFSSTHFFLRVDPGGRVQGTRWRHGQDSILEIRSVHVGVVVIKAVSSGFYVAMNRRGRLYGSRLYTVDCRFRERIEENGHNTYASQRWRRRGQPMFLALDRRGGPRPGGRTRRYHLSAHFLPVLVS
AF4-AF9 inh: blocks AF4 peptide binding to human AF9 | P42568 | AlphaScreen, biotin-AF4 peptide binding to FLAG-AF9 | inhibition, % at 10 µM | 350,000 compounds, 0.47% hits | AID 651704;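 active = every replicate reaching a set inhibition limit, whatever the replicate mean, cut at about 25% in these data; inconclusive = mean inhibition reaches that limit but some replicates miss it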;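 also: 0% = plate neutral control median and 100% = total signal loss; the record names both 10 and 1 µM as test concentration; the first replicate is given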
Target sequence (P42568 whole entry, looked up): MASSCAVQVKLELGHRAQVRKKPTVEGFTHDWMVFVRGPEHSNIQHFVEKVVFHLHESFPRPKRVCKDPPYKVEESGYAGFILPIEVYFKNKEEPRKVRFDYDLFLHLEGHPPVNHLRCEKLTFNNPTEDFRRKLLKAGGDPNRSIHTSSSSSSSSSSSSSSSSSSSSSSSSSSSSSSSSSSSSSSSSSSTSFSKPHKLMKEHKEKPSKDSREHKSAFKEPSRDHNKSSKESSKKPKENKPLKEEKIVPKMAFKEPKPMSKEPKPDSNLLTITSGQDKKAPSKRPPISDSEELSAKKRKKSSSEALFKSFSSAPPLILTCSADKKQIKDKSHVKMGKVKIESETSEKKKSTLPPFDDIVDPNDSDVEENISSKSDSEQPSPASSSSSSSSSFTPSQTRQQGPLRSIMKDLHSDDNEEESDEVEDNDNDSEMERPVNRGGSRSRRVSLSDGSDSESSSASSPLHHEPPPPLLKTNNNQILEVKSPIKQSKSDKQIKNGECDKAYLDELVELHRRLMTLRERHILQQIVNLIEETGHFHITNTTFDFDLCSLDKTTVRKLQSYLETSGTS
T cruzi repl: T. cruzi replication inhibition; T. cruzi beta-gal in NIH3T3, luminescence, 90 h; 300,000 compounds, 1.4% hits; inhibition, % (test concentration not listed);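 active = mean inhibition across valid replicates above about 55%, limit read from the data; inconclusive = mean below that limit but half or more replicates reach it; inactive = mean below it, under half of replicates reach it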;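 also: signal also drops with host cell toxicity which is not excluded here; 0% = plate median of DMSO wells and 100% = zero luminescence signal; higher percent means less beta-gal luminescence so fewer parasites; stock transfer was 50 nL into about 50 µL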
rRNA inh HTS: inhibits bacterial ribosomal RNA function over humanized ribosomes | GFP signal change (wild-type ribosome), % (test concentration not listed) | 350,000 compounds, 1.6% hits | E. coli WT GFP vs humanized-ribosome RFP mutants, fluorescence, 24 h; hits give low values; DMSO median 0, no signal -100 | AID 720706;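 active = significant combined selectivity score with lowered wild-type GFP, culture density cut under 30%, mutant RFP and density less affected; inactive = any of these conditions unmet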; also: one replicate is shown; some compounds called inactive have numbers as strong as hits
UCH37 DUB inh: blocks the human deubiquitinase UCH37 | purified proteasome/UCH37, Ub-AMC cleavage fluorescence | Q9Y5K5 | inhibition, % (no concentration beside the values) | 330,000 compounds, 0.33% hits;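 active = mean of two replicates above 20%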;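 also: 0% = compound-free wells with enzyme and 100% = wells lacking proteasome; stock transfer was 100 nL into about 20 µL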
Target sequence (Q9Y5K5 whole entry, looked up): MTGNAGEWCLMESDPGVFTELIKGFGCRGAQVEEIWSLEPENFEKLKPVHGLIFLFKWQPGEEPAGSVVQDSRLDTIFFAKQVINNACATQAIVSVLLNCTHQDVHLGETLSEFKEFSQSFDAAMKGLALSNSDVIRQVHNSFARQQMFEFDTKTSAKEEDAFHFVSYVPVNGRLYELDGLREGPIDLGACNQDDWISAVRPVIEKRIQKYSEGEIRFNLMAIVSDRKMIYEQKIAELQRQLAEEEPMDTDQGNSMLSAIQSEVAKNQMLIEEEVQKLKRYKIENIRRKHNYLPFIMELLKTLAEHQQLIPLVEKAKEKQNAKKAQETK
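Material: Human UCH37 enzyme supplied as purified proteasome complex | Schedule: 30 min preincubation with enzyme, 25 min cleavage at room temperature | Detection: AMC fluorescence 355/460 nm | Measure: % inhibition of Ub-AMC cleavage fluorescence | Controls: Wells without proteasome as full block, compound-free enzyme plus substrate as uninhibited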
E coli growth: inhibitors of Escherichia coli growth; OD600, 23 h; hits give low values; 330,000 compounds, 0.21% hits; OD600 absorbance (test concentration not listed);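 active = OD600 absorbance below the run mean of sample wells minus 3.6 SD, in any replicate, cut at about 0.56 in these data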;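 also: stock transfer was 300 nL into about 60 µL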
Beta cell apopt: beta cell apoptosis inhibition | INS-1E cytokine-induced death, ATP luminescence, 48 h; percent of positive-control rescue, neutral wells zero | protection from apoptosis, % (no concentration beside the values) | 300,000 compounds, 0.8% hits;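 active = all replicates at 75% or more, or half of them and the mean; inconclusive = half reach 75% but not the mean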;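 also: 0% = cytokine-treated negative control wells and 100% = positive control rescue; higher means more ATP so stronger rescue from cytokine killing; wells of about 40 µL received 100 nL stock; the first replicate is given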
Bfl-1 A1 inh: inhibitors of the anti-apoptotic protein A1, read as caspase activation. AID 2462. caspase activation, % (concentration not given with the values). MEF A1-2A-BIM cells, Caspase-Glo 3/7 luminescence, 3 h; percent of clofoctol response, vehicle zero. 330,000 compounds, 0.066% hits;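 active = over half of replicate activation scores above 10%, or exactly half above 10 with the replicate mean above 10; inconclusive = replicate mean below 10 yet half the replicates above 10; inactive = over half of replicates below 10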;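 also: wells of about 30 µL received 50 nL stock; many hits fall short of the cut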
rRNA inh HTS OD600: also measured in rRNA inh HTS; calls as there; OD600 change, %; measured here: OD600 growth;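 optical density of the mix in the first replicate; 0 = DMSO median and -100 = no signal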
rRNA inh HTS RFP: further read-out of rRNA inh HTS, marked with its call; RFP signal change, %; measured here: RFP humanized mutant strains;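 first replicate; 0 = DMSO median and -100 = no signal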
Numbers without * were called inactive; i = inactive; ? = inconclusive; nt = not tested or not shown; & = joins results of further samples. These rows are one share of the data; count on the stated rates, not on these rows.

SMILES | FGF22 binding | AF4-AF9 inh | T cruzi repl | rRNA inh HTS | rRNA inh HTS OD600 | rRNA inh HTS RFP | UCH37 DUB inh | E coli growth | Beta cell apopt | Bfl-1 A1 inh
c1csc(Cn2nnnc2CN2CCN(c3nc4ccccc4s3)CC2)c1 | nt | nt | 32 | nt | nt | nt | 0.5 | 0.71 | 7 | 1.2
Cc1onc(-c2ccccc2)c1C(=O)N1CCCSC1=Nc1ccccc1 | i | 2.5 | 11 | -7 | 3 | 2.8 | 3.2&3.9 | 0.68&0.74 | -1 | -0.2
CN1CCN(S(=O)(=O)c2cccc(C(=O)N3CCN(c4ccccc4F)CC3)c2)CC1 | i | 1.2 | nt | 11 | 10 | 2.3 | 3.9 | 0.67 | -1 | -0.2
CC(=O)c1cccc(NC(=O)CNC(=O)Cc2cccc3ccccc23)c1 | i | -4.2 | nt | -9 | -17 | 1.5 | 2.5 | 0.65 | 1 | 0.4
O=C(COc1ccc(Br)cc1)OCC(=O)N1CCOCC1 | i | 0.3 | nt | 6 | 2 | -3.5 | 3.3 | 0.7 | -5 | -0.6
O=C(NCc1ccc2c(c1)OCO2)c1cc(-c2ccccc2Cl)on1 | nt | nt | 4 | nt | nt | nt | 4.3 | 0.67 | -5 | -1.0
O=C(Nc1nc(-c2ccccn2)cs1)c1cc(S(=O)(=O)N2CCOCC2)ccc1F | i | 1.2 | nt | -40 | -63 | -18 | 1.1 | 0.68 | nt | nt
COc1ccc(C(NCC(=O)Nc2c(C)cccc2C)c2ccccc2)cc1 (stereo not given) | i | -10.0 | 10 | -33 | -42 | 14 | 6.9 | 0.68 | -2 | 1.6
CCOC(=O)C(C(C)=O)C(c1ccc(OCCC(C)C)cc1)C(C(C)=O)C(=O)OCC (stereo not given) | i | 4.3 | -1 | 8 | 14 | 9.0 | -2.9 | 0.67 | -2 | 1.8
NC(=O)CSc1nc2scc(-c3ccco3)c2c(=O)n1-c1ccccc1 | nt | nt | 6 | nt | nt | nt | 1.4 | 0.72 | -3 | -0.6
O=S1(=O)[C@H]2C[C@@H]3C=C[C@@]2(CN1Cc1cccc(Cl)c1)O3 | i | -11 | -3 | 4 | 17 | 6.4 | 1.8 | 0.78 | -8 | 0.6
CC(=O)Nc1ccc(Nc2nc(C)cc(C)n2)cc1 | i | 0.9 | -1 | 12 | 12 | 1.7 | 1.5 | 0.6 | -3 | -0.1
N#CC(=C(O)COC(=O)CCCNC(=O)c1ccc(Cl)cc1)c1nc2ccccc2[nH]1 | i | -1.5 | nt | -3 | -2 | 2.9 | -1.8&-0.9 | 0.71&0.71 | nt | nt
COc1ccc(S(=O)(=O)N2CCOCC2)cc1NC(=O)CN1C(=O)NC(C)(C2CC2)C1=O (stereo not given) | i | -3.1 | nt | 5 | 11 | -1.5 | 1.6 | 0.68 | -3 | -0.7
COc1ccc(NC(=O)CN2C(=O)NC(C)(c3ccccc3)C2=O)cc1Cl (stereo not given) | i | 2.0 | 2 | -4 | -6 | -0.4 | 0.4 | 0.69 | -1 | 1.1
O=C(NC1CCN(C(=S)NCc2ccco2)CC1)c1cccc(F)c1 | i | -1.3 | 14 | 7 | 3 | -2.2 | 0.8 | 0.7 | -5 | 0.9
C=CCn1c(SC)nnc1C1COc2ccccc2O1 (stereo not given) | i | 0.1 | -11 | 7 | 3 | -1.5 | -0.2 | 0.68 | 3 | 0.0
Cn1nnnc1SCC(=O)NCCCc1ccccc1 | nt | nt | -14 | nt | nt | nt | -0.3 | 0.74 | 2 | -2.2
O=C(c1cc2cc(Br)ccc2o1)N1CCN(c2ccccc2)CC1 | i | 0.9 | -2 | 3 | 6 | 1.2 | 1.1 | 0.73 | 2 | -0.3
O=C(Oc1cccc([N+](=O)[O-])c1)C1CCN(C(=O)c2ccc(F)cc2)CC1 | i | -0.3 | -3 | 12 | 4 | -0.1 | 5.3 | 0.73 | 3 | -0.6
CCC(C)c1ccc(NC(=O)c2cccs2)cc1 (stereo not given) | nt | nt | 9 | nt | nt | nt | 1.5 | 0.63 | 15 | -5.2
COc1ccccc1P(=O)(c1ccccc1)c1ccccc1NC(C)=O (stereo not given) | i | nt | -11 | 1 | 0 | -2.2 | 1.0 | 0.64 | -6 | 0.7
Cc1[nH][nH]c(=O)c1C(c1cc2c(cc1Br)OCO2)c1c(C)[nH][nH]c1=O | i | 1.1 | -6 | 25 | 16 | 1.3 | 2.8 | 0.69 | -4 | 0.2
COC(=O)c1ccc(NC(=O)c2cccnc2)cc1 | i | 1.7 | 4 | 0 | 9 | -4.5 | 2.5 | 0.67 | 110* | 0.1
Cc1ccc(S(=O)(=O)Nc2cc(=O)[nH]c(SCC(=O)Nc3cccc(C)c3)n2)cc1 | i | 12 | -4 | 6 | 0 | 0.0 | 3.6 | 0.71 | -2 | 0.3
COCCOC(=O)c1c(NC(=O)COC(=O)c2ccc(C)o2)sc(C(N)=O)c1C | i | -12 | nt | -2 | -3 | -2.5 | -2.5 | 0.7 | 1 | 0.5
COc1ccc(OC)c(S(=O)(=O)N2CCN(c3ccccc3)CC2)c1 | i | 4.2 | 6 | -18 | -20 | -1.6 | 0.9 | 0.67 | -8 | -0.4
CCN(c1ccccc1)S(=O)(=O)c1nnc(NC(=O)C(C)(C)C)s1 | i | -3.3 | -5 | 3 | 1 | 1.7 | 5.3 | 0.67 | 3 | 0.0
CC(=O)N(C)c1cccc([N+](=O)[O-])c1 | i | -1.8 | -2 | 21 | 15 | 3.8 | 1.4 | 0.68 | -4 | 0.2
CSc1ccc(-c2nc3cnccn3c2Nc2ccc3c(c2)OCO3)cc1 | nt | nt | 9 | nt | nt | nt | -95 | 0.72 | 2 | -0.4
C#CCOCCOCCOCCNc1nc(N2CCN(C(=O)[C@H]([C@@H](C)CC)n3cc(CCCN=C(N)N)nn3)CC2)nc(N2CCN(C(=O)[C@H](C)n3cc(CCCN=C(N)N)nn3)CC2)n1 | nt | nt | -4 | nt | nt | nt | 0.5 | nt | -3 | -9.4
Cc1ccc(OCC(=O)NNC(=S)NC(=O)C(C)(C)C)c(Br)c1 | i | 3.1 | 27 | -48 | -77 | -23 | 1.0 | 0.65 | 20 | 1.4
c1ccc(-c2csc(Cc3nnc4n3CCCCC4)n2)cc1 | nt | nt | -2 | nt | nt | nt | 2.6 | 0.68 | -2 | 0.4
Cc1cc(C)c2oc(C(=O)N3CCN(Cc4ccccc4)CC3)cc(=O)c2c1 | i | 3.8 | 3 | -10 | -27 | 1.0 | 0.1 | 0.68 | -2 | -0.2
COc1ccccc1C(=O)NCC(=O)NCCc1ccc(Cl)cc1 | i | 0.8 | 0 | -2 | -5 | 1.6 | 0.1 | 0.69 | -2 | -0.9
CN(C)n1cccc1/C=C(\C#N)S(=O)(=O)c1cccc(Cl)c1 | i | -0.3 | -18 | 24 | 12 | 3.9 | 5.4 | 0.66 | -3 | 0.3
COC(=O)c1ccc(/C=C/c2c(-c3ccc(OC)cc3)oc3ccc(N4CCOCC4)cc23)cc1 | i | -12 | 43 | 11 | 15 | -2.3 | -91 | nt | 6 | 0.3
CCOc1ccc(C(C(=O)NC2CCCC2)N(C(=O)CNC(=O)c2ccco2)c2cccnc2)cc1 (stereo not given) | i | -5.7 | -3 | 6 | 6 | -2.1 | 3.6 | 0.7 | -3 | 0.0
c1ccc(OCc2nnc3sc(C4COc5ccccc5O4)nn23)cc1 (stereo not given) | i | -0.8 | -22 | -1 | -4 | 0.1 | 0.3 | 0.68 | 0 | -0.5
O=C(CSc1nnnn1-c1ccccc1F)Nc1nc2ccccc2s1 | i | 0.0 | -8 | 6 | 2 | 2.5 | 2.1 | 0.68 | 6 | 0.7
Cc1c(N(C)S(=O)(=O)c2ccc(Cl)c(C(=O)NCC3CCCO3)c2)c(=O)n(-c2ccccc2)n1C (stereo not given) | i | -4.1 | nt | 6 | 10 | -1.7 | 3.5 | 0.64 | nt | nt
CCc1ccc([C@@H]2CC=C(C(=O)O)[C@H](c3cccc(Cl)c3)N2S(=O)(=O)c2ccc(C)cc2)cc1 | i | -4.3 | nt | -41 | -48 | 15 | 5.0 | nt | 2 | 0.6
Cc1ccc(-c2cn3c(=S)[nH]nc3s2)cc1 | nt | nt | 0 | nt | nt | nt | 1.7 | 0.67 | 2 | -1.1
COc1cc(C(=O)OC2CCOC2=O)cc(Cl)c1OC (stereo not given) | i | -3.3 | -11 | 4 | 5 | -3.7 | 0.7 | 0.59 | 4 | -0.3
O=c1[nH]cccc1-c1nc2cc(Cl)ccc2n1Cc1ccccc1 | i | -15 | -12 | -8 | -15 | -0.8 | -143 | 0.69 | 4 | -0.5
Cc1ccc(OCc2cc(C(=O)NCc3cc(F)ccc3C)no2)cn1 | i | 1.0 | -7 | 6 | -22 | -3.8 | 4.4 | 0.67 | nt | nt
COc1ccccc1NC(=S)NC(=O)c1c(-c2ccccc2Cl)noc1C | i | 4.7 | 10 | -7 | -12 | -5.3 | 2.2 | 0.73 | -4 | 0.0
CCOC(=O)C1C(=O)CC(C)(O)C(C(=O)OCC)C1c1ccc(Br)cc1 (stereo not given) | nt | nt | -12 | nt | nt | nt | -4.6 | 0.76 | -1 | 0.7
COc1ccc(CN2CCN(c3ncccn3)CC2)c(OC)c1 | nt | nt | -19 | nt | nt | nt | 2.4 | 0.67 | 1 | 0.1
O=C1C(=O)N(CCS(=O)(=O)c2ccccc2)c2ccccc21 | i | -3.2 | -8 | -2 | -6 | -0.9 | 5.1 | 0.72 | -13 | 0.0

(list continues)
SMILES | FGF22 binding | AF4-AF9 inh | T cruzi repl | rRNA inh HTS | rRNA inh HTS OD600 | rRNA inh HTS RFP | UCH37 DUB inh | E coli growth | Beta cell apopt | Bfl-1 A1 inh
CC1CC(C)CN(S(=O)(=O)c2ccc(C(=O)N3CCCC3)cc2)C1 (stereo not given) | i | -1.2 | 10 | -1 | -2 | 4.6 | 2.5 | 0.71 | -1 | -0.7
COC(=O)[C@@]1(Cc2ccc(OC)cc2)[C@H]2c3cc(C(=O)N(C)C)n(C[C@H](O)CO)c3C[C@H]2CN1C(=O)c1ccccc1 | i | -6.6 | nt | -3 | 6 | -16 | 0.6 | nt | 2 | 2.9
CCC(C(=O)NCc1ccco1)n1nc(C)c2c(C)n(-c3ccccc3)nc2c1=O (stereo not given) | i | 1.3 | -11 | 8 | 6 | 0.0 | 1.2 | 0.67 | 0 | ?
O=C(O)CN1C(=O)CNC1=O | nt | nt | -3 | nt | nt | nt | -0.1 | 0.69 | -2 | 1.3
COc1ccc(C(NC(C)=O)c2nccc3cc(OC)c(OC)cc23)cc1OC (stereo not given) | i | -1.3 | -26 | -1 | 7 | -1.6 | 4.5 | 0.7 | nt | 0.1
O=C(CCN(NC(=O)c1ccccc1)C1=NS(=O)(=O)c2ccccc21)NC1CCCCC1 | nt | nt | -19 | nt | nt | nt | 4.1 | 0.69 | -4 | 0.4
